# SARS PLpro yeast – SARS-CoV PLP inhibition in yeast; S. cerevisiae expressing SARS-CoV PLpro, growth rescue; control for the full effect not named in the record; Potency, µM (top dose mostly 32.9 µM), inactives show top-dose activity, positive = growth rescue; hit rate 0.19% among 330,000; AID 485353; active means well fitted rising curve with a large enough effect; inconclusive means small, poorly fitted or top-dose-only effect; inactive means no such curve, though single readings can be large or run the other way; also: 0% is about no effect; nearly all actives have a fitted effect of over 55% in size; growth read by luminescence after 48 h
# StopGo reporter – FMDV 2A StopGo reporter, luciferase signal. human cells with a luciferase reporter of 2A StopGo recoding; control for the full effect not named in the record. Potency, µM (series often up to 57.9 µM), without a hit: top-dose signal change, negative = less light. hit rate 1.2% among 410,000; active = well fitted falling curve with a large enough effect; inconclusive = small, poorly fitted or top-dose-only effect; inactive = no such curve, though single readings can be large or run the other way; tested in HEK293T cells; also: % is scaled to controls: 0 for no effect and ±100 for the full control effect; nearly all actives have a fitted effect of over 45% in size; luciferase light after 4 h
# RE007 growth inh – less growth of the S. pombe RE007 Vpr strain; S. pombe RE007 Vpr strain, BacTiter-Glo ATP luminescence, 24 h; control for the full effect not named in the record; Potency, µM (highest dose often 92.2 µM), for inactives: at the top dose activity change, negative = less growth; hit rate 0.21% among 360,000; active = well fitted falling curve with a large enough effect; inconclusive = small, poorly fitted or top-dose-only effect; inactive = no such curve, though single readings can be large or run the other way;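 also: % is scaled to controls: 0 for no effect and ±100 for the full control effect; nearly all actives have a fitted effect of over 50% in size; the assay follows cell death caused by Vpr and the record does not say whether a fall means rescue or toxicity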
#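 Fission yeast RE007 carrying one integrated HIV-1 vpr copy, seeded at OD 0.01 in PMG+AL medium with 23 nL pinned compound. Grown 24 h at 30 degrees; viability read by BacTiter-Glo luminescence after 5 min.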
# * marks the source's active call; other numbers are inactive results; ? = inconclusive; [ ] = remark or other dose. Potency is read from the fitted curve at half-maximal effect. The list is partial, so the mix of outcomes need not match the whole.
1	O=C(COC(=O)CC1CC2CCC1C2)Nc1ccc(F)cc1Cl (stereo not drawn)
2	C#CCOCCOCCOCCNc1nc(N2CCN(C(=O)[C@H](CCC(=O)O)n3cc([C@@H](N)CC(N)=O)nn3)CC2)nc(N2CCN(C(=O)[C@H](CCC(=O)O)n3cc([C@@H](N)CC(N)=O)nn3)CC2)n1
3	CC(C)(C)OC(=O)C[C@@H]1C/C=C\C[C@H](CC(=O)NCCO)C(=O)N[C@H](Cc2ccccc2)COC1=O
4	O=C(Nc1nc(-c2ccccn2)cs1)c1cccc(S(=O)(=O)N2CCOCC2)c1
5	Cc1ccc(N(C)S(=O)(=O)c2cccc(C(=O)Nc3ccc(N4CCOCC4)cc3)c2)cc1
6	COc1cccc(CNC(=O)CN2C(=O)NC(Cc3ccccc3)(c3ccccc3)C2=O)c1 (stereo not drawn)
7	O=C(Cc1ccsc1)NCC(=O)Nc1ccccc1Br
8	Cc1ccn2cc(C(=O)N3CCN(c4cnn(-c5ccccc5)c(=O)c4Cl)CC3)nc2c1
9	O=C(O)C(C(O)c1ccccc1)[n+]1ccccc1 (stereo not drawn)
10	Cc1ccc(NC(=O)COC(=O)c2ccc(Br)o2)cc1S(=O)(=O)N1CCCCC1

assay / compound	1	2	3	4	5	6	7	8	9	10
SARS PLpro yeast	-7%	0%	1%	-1%	19%	6%	1%	3%	-4%	2%
StopGo reporter	-6%	-19%	-6%	-14%	25µM*	-28%	?	-18%	-17%	-14%
RE007 growth inh	-6%	7%	-6%	3%	3%	1%	8%	7%	5%	-6%

11	O=S(=O)(Nc1ccc2nc(N3CCOCC3)sc2c1)c1ccc(Cl)cc1
12	Cc1ccc2cc(CCNC(=O)c3cc4ccccc4o3)c(=O)[nH]c2c1C
13	C[C@H]1CN([C@@H](C)CO)C(=O)c2cccc(NC(=O)c3cnccn3)c2O[C@@H]1CN(C)C(=O)Nc1ccc2c(c1)OCO2
14	Cc1nc(SCC(=O)NC2CCS(=O)(=O)C2)c2c(C)c(C)sc2n1 (stereo not drawn)
15	C[C@H](NC(=O)c1nc[nH]c1C(=O)N1CCc2ccccc2C1)c1ccccc1
16	COc1ccccc1N(C)S(=O)(=O)c1ccc(C)c(C(=O)NCc2ccccn2)c1
17	COc1ccc(NC(=O)N(C)C[C@H]2Oc3ccc(NC(=O)NC4CCCCC4)cc3C(=O)N([C@H](C)CO)C[C@@H]2C)cc1
18	Cc1ccc(CONC(=O)c2cccc([N+](=O)[O-])c2)cc1
19	CC(C)Cn1c(SCC(=O)N2CCc3ccccc3C2)nc(O)cc1=O
20	CC(C)(O)c1cc2ccc(C#CCCN3C(=O)c4ccccc4C3=O)cc2c(=O)o1

assay / compound	11	12	13	14	15	16	17	18	19	20
SARS PLpro yeast	3%	-3%	-1%	3%	1%	2%	3%	-6%	2%	2%
StopGo reporter	43%[activator]	-9%	-3%	-6%	-18%	-28%	7%	36%[activator]	-22%	-5%
RE007 growth inh	13%	-5%	2%	-13%	-1%	-20%	17%	-7%	10%	11%

21	CC1(C)CC[C@]2(C(=O)O)[C@H](O)C[C@]3(C)C(=CCC4[C@@]5(C)C[C@H](O)[C@H](O)[C@@](C)(CO)C5CC[C@]43C)[C@@H]2C1 (stereo partly drawn)
22	CC(C)C(=O)Nc1ccc(C(=O)CN2C(=O)NC3(CCOc4ccccc43)C2=O)cc1 (stereo not drawn)
23	CC(C)CCN1CCN=C1N(C)C
24	COc1cc(/C=C/C(=O)O)ccc1OS(=O)(=O)c1c(C)c(C)cc(C)c1C
25	COc1ccc(S(=O)(=O)NCCOc2ccc(Cl)cc2)cc1
26	CCOc1cc(N2CCOCC2)c(OCC)cc1NC(=O)Cn1cnc2c(=O)n(C)c(=O)n(C)c21
27	CC(C)(C)[C@H]1COC(=O)[C@@H](Cc2ccc(F)cc2)CC/C=C/C[C@@H](CC(=O)N[C@H](CO)Cc2ccccc2)C(=O)N1
28	Cc1cc(Br)ccc1NC(=O)CN(C)C(=O)CN1C(=O)NC(C)(C2CC2)C1=O (stereo not drawn)
29	COc1cccc(-c2ncc3ccccc3c2COC(=O)c2ccco2)c1
30	COCc1c(C(=O)N/N=C/c2cccc3ccccc23)nnn1-c1nonc1N

assay / compound	21	22	23	24	25	26	27	28	29	30
SARS PLpro yeast	-5%	1%	-9%	6%	?	2%	-4%	3%	4%	-3%
StopGo reporter	-20%	-21%	-15%	-23%	3%	-10%	-11%	1%	?	-5%
RE007 growth inh	10%	11%	-6%	-3%	6%	5%	-13%	4%	-9%	5%

31	Cc1[nH]c2ccccc2c1CCN(Cc1cccnc1)C(=S)Nc1ccc(F)cc1
32	O=C(c1ccco1)N1CCN(Cc2nc3ccccc3[nH]2)CC1
33	COC(=O)C1=C(c2ccc(F)cc2OCc2ccccc2)C[C@@H]2CC[C@H]1N2C(=O)NCc1ccccc1C(F)(F)F
34	CC(C)(C)OC(=O)N1CCCC(C(=O)Nc2ccc(C(=O)N3CCOCC3)cc2)C1 (stereo not drawn)
35	Cc1n[nH]c(C)c1S(=O)(=O)N1CCN(S(=O)(=O)c2ccccc2C#N)CC1
36	CC(=O)c1ccc(NC(=O)C(C)NCc2ccc(Cl)cc2)cc1 (stereo not drawn)
37	Fc1ccc2cnc(-c3ccccc3)c(-c3ccc(C(F)(F)F)cc3)c2c1
38	CC(C(=O)Nc1ccc(S(=O)(=O)N2CCCC2)cc1)N(C)Cc1ccc(F)cc1 (stereo not drawn)
39	O=S(=O)(c1cc(F)ccc1F)N1CCN(c2ncnc3ccccc23)CC1
40	CC[C@]1(C(=O)OC)[C@H]2C(=O)N(Cc3ccccc3)C(=O)[C@H]2[C@H]2CN(C)C(=NC)N21

assay / compound	31	32	33	34	35	36	37	38	39	40
SARS PLpro yeast	0%	-4%	3%	-9%	-3%	-7%	1%	4%	-15%	-2%
StopGo reporter	-20%	0%	-8%	64%[activator]	4%	-3%	-9%	-27%	10µM*	-10%
RE007 growth inh	-1%	-6%	15%	5%	-6%	-15%	-2%	0%	-5%	5%

41	CC(C)CN(C(=O)CN1C(=O)NC2(CCc3ccccc32)C1=O)C1CCS(=O)(=O)C1 (stereo not drawn)
42	O=C1N(c2ccccc2C(F)(F)F)O[C@]1(c1ccccc1)C1CCCC1
43	CCOC(=O)C1=C(C)NC(=S)NC1c1cc(C)sc1C (stereo not drawn)
44	O=C(NC1CCC(O)CC1)c1ccc(NS(=O)(=O)c2cccc([N+](=O)[O-])c2)cc1 (stereo not drawn)
45	CCN(CC(=O)Nc1cc(S(=O)(=O)N2CCOCC2)ccc1Cl)Cc1ccccc1
46	CS(=O)(=O)c1ccc(C(=O)CN2C(=O)NC3(CCCc4ccccc43)C2=O)cc1 (stereo not drawn)
47	Cc1cc(NC(=O)CSc2ncc(C(=O)O)n2-c2ccc(F)cc2)no1
48	O=C1[C@@H](Oc2ccccc2)[C@@H](c2ccncc2)N1c1ccccc1
49	O=C(Cc1csc(-c2ccc(Cl)cc2)n1)Nc1cccc(S(=O)(=O)NC2=NCCC2)c1
50	CC[n+]1ccccc1/C=C/c1ccc(N(C)C)cc1

assay / compound	41	42	43	44	45	46	47	48	49	50
SARS PLpro yeast	-34%	4%	1%	-17%	3%	2%	3%	-8%	2%	1%
StopGo reporter	-15%	-30%	?	-6%	?	-27%	0%	?	-17%	?
RE007 growth inh	-17%	7%	-15%	-11%	10%	2%	-19%	-6%	3%	-23%

# Full records, quoted from the list. Values in the order: SARS PLpro yeast | StopGo reporter | RE007 growth inh
# Results for `O=C(NC1CCC(O)CC1)c1ccc(NS(=O)(=O)c2cccc([N+](=O)[O-])c2)cc1` (stereo not drawn) : -17% | -6% | -11%
# Results for `CCN(CC(=O)Nc1cc(S(=O)(=O)N2CCOCC2)ccc1Cl)Cc1ccccc1` : 3% | ? | 10%
# Results for `Cc1cc(NC(=O)CSc2ncc(C(=O)O)n2-c2ccc(F)cc2)no1` : 3% | 0% | -19%
# Results for `O=C1[C@@H](Oc2ccccc2)[C@@H](c2ccncc2)N1c1ccccc1` : -8% | ? | -6%
# Results for `O=C1N(c2ccccc2C(F)(F)F)O[C@]1(c1ccccc1)C1CCCC1` : 4% | -30% | 7%

# (continued)
51	OCC[C@H]1C[C@@H](O)[C@H](O)[C@]2(Cc3ccccc3O2)O1
52	N/C(=N\OC(=O)Cc1ccccc1)c1ccccc1Cl
53	CCOc1ccc(NC(=O)COc2nsnc2N2CCOCC2)cc1
54	O=C(NCC(=O)N1CCN(c2ncccn2)CC1)c1ccccc1F
55	COc1ccc(N2CC(O)=C(c3nc(-c4ccc(Br)cc4)cs3)C2=N)cc1
56	O=C(Nc1ccccc1)c1ccccc1C(=O)N1CCCCC1
57	COC(=O)C1=C(c2ccc(OC(F)(F)F)cc2)C[C@@H]2CC[C@H]1N2C(=O)NCc1cccc2ccccc12
58	COC(=O)CCC(=O)NNC(=O)c1ccc([N+](=O)[O-])cc1
59	CCOC(=O)CCCCC(=O)c1[nH]c(=O)[nH]c1C[n+]1ccc(C)cc1
60	COc1cc(OC)c2c(-c3cccc(-c4ccoc4)c3)cc(=O)oc2c1

assay / compound	51	52	53	54	55	56	57	58	59	60
SARS PLpro yeast	3%	1%	-3%	-2%	1%	0%	0%	-2%	0%	1%
StopGo reporter	8%	43%[activator]	-14%	65%[activator]	5%	-9%	13µM*	-11%	-2%	-23%
RE007 growth inh	7%	0%	-5%	10%	9%	-17%	-1%	-12%	-2%	5%

61	CC1CCN(C(=O)c2ccc3c(Cl)c4c(nc3c2)CCCC4)CC1
62	O=C(C1CCN(S(=O)(=O)c2ccc(Cl)cc2)CC1)N1CCN(c2ccccn2)CC1
63	Cc1cccc(NC(=O)Nc2ccc(S(=O)(=O)Nc3onc(C)c3C)cc2)c1
64	CCN(Cc1ccc2c(c1)OCCO2)C(=O)CSc1nc(C)nc2sc(C)c(C)c12
65	COc1cccc(N2CCN(CC(=O)Nc3ccccc3C(=O)NCCc3ccccc3)CC2)c1
66	Cc1cc(C)c(NC(=O)Cn2nnc(C(=O)NCc3ccco3)c2N)c(C)c1
67	COc1ccc(/C=C/C(=O)OCn2c(SC)nnc(C)c2=O)cc1OC
68	Cc1ccc(C(=O)Nc2cc(C(F)(F)F)ccc2-n2cncn2)o1
69	Cc1nn(-c2ccccc2)c(C)c1NC(=O)COC(=O)c1cc(Cl)ccc1O
70	CC(C)(C)NC(=O)NC12CC3CC(CC(C3)C1)C2

assay / compound	61	62	63	64	65	66	67	68	69	70
SARS PLpro yeast	-2%	-6%	2%	-6%	-2%	-2%	-5%	-2%	1%	-4%
StopGo reporter	62%[activator]	-16%	50%[activator]	32µM*	7%	-16%	-18%	7%	-1%	-11%
RE007 growth inh	-11%	-7%	-11%	3%	?	-1%	1%	6%	-5%	-7%

71	C[C@@H]1CN([C@H](C)CO)C(=O)c2cc(NS(=O)(=O)c3ccc(F)cc3)ccc2O[C@@H]1CN(C)Cc1ccc(Cl)c(Cl)c1
72	CC1Cc2ccccc2N1C(=O)COC(=O)/C=C/c1ccc(F)cc1 (stereo not drawn)
73	CCCCCCSc1ccc([C@H]2N[C@@](Cc3ccccc3)(C(=O)OC)[C@H]3C(=O)N(C)C(=O)[C@@H]23)cc1
74	CSc1ccc(Cl)c(C(=O)OCC(=O)N2CCN(C(=O)c3ccco3)CC2)c1
75	C[C@H]1CN([C@@H](C)CO)C(=O)c2cc(NC(=O)C3CCCCC3)ccc2O[C@H]1CN(C)Cc1ccc(-c2ccccc2)cc1

assay / compound	71	72	73	74	75
SARS PLpro yeast	1%	14%	-2%	4%	-4%
StopGo reporter	?	-2%	-28%	-6%	?
RE007 growth inh	0%	0%	-18%	-9%	30%

# Part of the list above in another layout.
entry	SMILES	SARS PLpro yeast	StopGo reporter	RE007 growth inh
71	C[C@@H]1CN([C@H](C)CO)C(=O)c2cc(NS(=O)(=O)c3ccc(F)cc3)ccc2O[C@@H]1CN(C)Cc1ccc(Cl)c(Cl)c1	1%	?	0%
72	CC1Cc2ccccc2N1C(=O)COC(=O)/C=C/c1ccc(F)cc1 (stereo not drawn)	14%	-2%	0%

# 2 records picked at random from the list so far, as already listed:
72	CC1Cc2ccccc2N1C(=O)COC(=O)/C=C/c1ccc(F)cc1 (stereo not drawn)
71	C[C@@H]1CN([C@H](C)CO)C(=O)c2cc(NS(=O)(=O)c3ccc(F)cc3)ccc2O[C@@H]1CN(C)Cc1ccc(Cl)c(Cl)c1

assay / compound	72	71
SARS PLpro yeast	14%	1%
StopGo reporter	-2%	?
RE007 growth inh	0%	0%

# Screens deposited in PubChem by National Center for Advancing Translational Sciences (NCATS).
